Screens as filed in PubChem BioAssay.
miR-21 reporter: raises the signal of a miR-21 reporter; AID 2288; Potency, µM (top dose mostly 38.3 µM), for inactives: at the top dose reporter change, positive = more light; HeLa miR-21 FLuc reporter, luciferase, 48 h; 340,000 tested, under 10 active; active = well fitted rising curve with a large enough effect; inconclusive = small, poorly fitted or top-dose-only effect; inactive = no such curve, though single readings can be large or run the other way;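 note: % of control where 0% means no effect; miR-21 action dims this reporter so a rising signal means less miR-21 action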
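Compounds were titrated across several concentrations (up to approximately 40 uM) and incubated 48 hours with HeLa miR-21-FLuc reporter cells (miR-21 target sequence downstream of FLuc, endogenous miR-21). Readout was firefly luciferase luminescence after lytic detection reagent.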
The depositor's hits bear a star; ? = inconclusive.

molecule | miR-21 reporter
COc1ccc(C(C(=O)NCc2ccccc2)N(C(=O)Cn2nnc3ccccc32)c2ccc(F)cc2)cc1 (centres undefined) | -6%
CC(C)Oc1ccc(CNC(=O)CN2C(=O)CCc3cc(S(=O)(=O)N4CCCCC4)ccc32)cc1 | -1%
Cc1ccc(-c2nnc3ccccc3c2C(=O)Nc2ccccc2F)cc1 | -31%
Brc1cccc(-c2nn(-c3ccccc3)c3c2cnc2cc4c(cc23)OCO4)c1 | -1%
Cc1ccc(CS(=O)(=O)c2ncc(Cl)c(C(=O)Nc3nc4ccc(C)cc4s3)n2)cc1 | ?
COc1cccc(-n2cc(C(=O)OCc3ccc(F)c(F)c3)c3ccccc3c2=O)c1 | -1%
CCC(=O)Nc1sc2c(c1C(=O)Nc1ccccc1C)CCC(C)C2 (centres undefined) | -4%
O=C(CCCc1ccccc1)NC1CC(=O)N(c2ccc(F)cc2)C1 (centres undefined) | 0%
Cc1ccc(N2CCN(C(=O)c3cc(S(=O)(=O)N4CCCCC4)c[nH]3)CC2)c(C)c1 | -9%
O=C(CSCc1ccc(F)cc1)N1CCc2c([nH]c3ccccc23)C1c1ccccc1 (centres undefined) | ?
CCCOc1ccc(C2=NC(c3ccc(F)cc3)=Nc3ccc(OC)cc3N2)cc1 | -26%
CCn1nnc2cc(C(=O)Nc3cccc(C(F)(F)F)c3)ccc21 | 1%
Cc1ccc(OCCCCn2c(CCNC(=O)C(C)(C)C)nc3ccccc32)cc1 | -4%
CCc1cc2c(cc3c(=O)n(CCCC(=O)NCc4cccc(Cl)c4)ncn32)s1 | 9%
Cc1ccn2c(Nc3ccc(C(C)C)cc3)c(-c3cccnc3)nc2c1 | ?
Cc1cccc(-c2noc(CNC(=O)c3ccccc3Br)n2)c1 | -4%
CCC(Sc1nc2ncccc2[nH]1)C(=O)Nc1ccccc1F (centres undefined) | -1%
O=C(Nc1ccc(F)cc1F)c1c2c(nc3ccccc13)C(=O)N(C1CCCCC1)C2 | -2%
CCOc1ccc(CN2CCc3nc(Nc4ccc(OC)cc4OC)ncc3C2)cc1 | -5%
CC(C)Cn1c(=O)c2ccccc2n2c(-c3ccc(Br)cc3)nnc12 | 6%
COc1cc2cc(CNc3ccc(C)cc3)c(=O)n(CC(=O)Nc3ccc(F)cc3F)c2cc1OC | -16%
COc1ccc(CCNC(=O)C(=O)NCC(c2ccco2)S(=O)(=O)c2cccs2)cc1 (centres undefined) | 21%
Cc1ccc(O)c(C(CC(=O)NCC2(c3ccccc3)CCCC2)c2ccccc2)c1 (centres undefined) | ?
Cc1ccccc1Nc1nn2c(=O)c3ccc(C(=O)NCc4ccccc4)cc3nc2s1 | 19%
Cc1ccc(C)c(CNC(=O)c2cnc3sc(N4CCCC4)nn3c2=O)c1 | -5%
COc1ccc(CNCc2c(C(=O)O)c(C)n(Cc3ccc(Cl)cc3)c2C)c(OC)c1 | -5%
CCC(=O)N1CCCc2cc(S(=O)(=O)Nc3ccc(C)c(C)c3)ccc21 | 9%
COc1ccccc1CNC(=O)CN(c1ccccc1OC)S(C)(=O)=O | -6%
Cc1cccc(-c2nc(CSCC(=O)N3CCN(c4cccc(C)c4C)CC3)c(C)o2)c1 | 20%
CCc1cc(=O)[nH]c(SCc2nc(-c3ccc(C(F)(F)F)cc3)no2)n1 | -1%
O=c1c2cc3c(cc2nc2sc(Nc4ccc(F)cc4F)nn12)OCO3 | -15%
O=C(O)CCc1nnc2cnc3ccccc3n12 | -18%

Three entries out of the list above, arranged by the value under miR-21 reporter, falling.
molecule | miR-21 reporter
COc1ccc(CCNC(=O)C(=O)NCC(c2ccco2)S(=O)(=O)c2cccs2)cc1 (centres undefined) | 21%
CC(C)Oc1ccc(CNC(=O)CN2C(=O)CCc3cc(S(=O)(=O)N4CCCCC4)ccc32)cc1 | -1%
CCOc1ccc(CN2CCc3nc(Nc4ccc(OC)cc4OC)ncc3C2)cc1 | -5%

More structures follow.
molecule | miR-21 reporter
Cc1cccc(C)c1OCC(=O)Nc1c(C(=O)c2ccccc2)oc2ccccc12 | -3%
CCOC(=O)Cn1c(=N)n(Cc2ccc(C(C)(C)C)cc2)c2ccccc21 | 4%
CCOc1cc(C(=O)OCc2cc(=O)n3nc(CC)sc3n2)cc(OCC)c1OCC | 3%
Cc1cc(C)c(Cn2c3ccccc3c3cnn(CC(=O)NCCC4=CCCCC4)c(=O)c32)c(C)c1 | -1%
Cn1c(C(=O)NCCc2ccccc2)cc2c(=O)n3ccccc3nc21 | -4%
COc1cc(NC(=O)N2CCC3(CC2)Nc2cc(F)ccc2-n2cccc23)cc(OC)c1OC | 24%
CSc1ncc(C(=O)Nc2ccc(C)c(Cl)c2)c(-c2ccccc2)n1 | 6%
CCOc1ccc(C(=O)NCC(c2cccs2)S(=O)(=O)c2ccccc2)cc1 (centres undefined) | 23%
Cc1ccc(-c2nc(CS(=O)(=O)CC(=O)N3CCN(c4ccccc4)CC3)c(C)o2)cc1 | ?
CCCCOc1nnc(-c2ccc(OCC)cc2)c2ccccc12 | 9%
CCN(CCCNC(=O)c1nn(-c2ccc(C)cc2)c(=O)c2c1c1ccccc1n2C)c1cccc(C)c1 | 0%
Cc1ccc(Cl)cc1NC(=O)Cn1c(=O)c(CNc2ccccc2)cc2cc3c(cc21)OCCO3 | -5%
CCOc1ccc(C(=O)Nc2ccccc2OCc2cc(=O)n3ccccc3n2)cc1 | 0%
Cc1ccccc1OCC(=O)Nc1cccc(C(=O)OCc2cc(=O)n3c(C)csc3n2)c1 | -41%
CCOc1ccccc1NC(=O)Cn1ccn(Cc2ccc(C)cc2)c(=O)c1=O | 16%
Cc1ccc(NC(=O)CSc2ccc3nnc(CCNS(=O)(=O)c4ccccc4)n3n2)cc1Cl | 2%
CCc1nnc(SC(CC)C(=O)Nc2ccc(OC)c(Cl)c2)c2cc3occc3n12 (centres undefined) | -17%
COc1ccc2c(c1)c1c(c(=O)n(Cc3ccccc3)c(=O)n1CC(=O)NCc1ccccc1)n2C | 0%
COc1ccc(OC)c(NC(=O)Nc2cccc(OCc3cc(=O)n4cc(C)ccc4n3)c2)c1 | -28%
O=C(NCCn1cc(SCc2ccc(C(F)(F)F)cc2)c2ccccc21)c1cccs1 | -5%
Cc1cccc(NC(=O)Cn2c(=O)n(CCCS(=O)(=O)C3CCCCC3)c(=O)c3ccccc32)c1 | 5%
Cc1ccc2nc(COc3ccccc3NC(=O)COc3ccc(F)cc3)cc(=O)n2c1 | -1%
COc1cc(OC)c(N(C)C(=O)c2cc3c(s2)-c2ccccc2OC3)cc1Cl | -3%
CC1=C(c2ccc(C)c(C)c2)S(=O)(=O)N(Cc2ccc(C(=O)NCc3ccccc3F)cc2)C1=O | 1%
CCC(=O)N1CCc2cc(Br)cc(S(=O)(=O)CCC(=O)NCCc3ccc(Cl)cc3)c21 | 7%
CC(C)c1ccc(S(=O)(=O)NCc2nc3cccnc3n2Cc2ccc(F)cc2)cc1 | 5%
CCc1cccc(C)c1NC(=O)c1cc(S(=O)(=O)NCc2ccccc2Cl)ccc1F | 21%
Cc1ccc2oc(C(=O)Nc3nnc(CC(C)C)s3)cc(=O)c2c1 | -2%
CCC(C)NC(=O)CCC(=O)N1Cc2ccccc2Oc2ncccc21 (centres undefined) | -11%
CCc1ccc(OCC(=O)N(Cc2ccc(C)cc2)Cc2ccco2)cc1 | 11%
COc1ccccc1Cc1nc2ccccc2nc1SCC(=O)N1CCN(c2ccccc2)CC1 | -2%
CCCN(CCC)c1nn2c(=O)c(C(=O)NCc3cccc(OC)c3)cnc2s1 | -2%
O=C(NCc1ccccc1Cl)c1ccc(NC(=O)N2CCCCc3ccccc32)cc1 | 2%
Cc1cccc(NC(=O)CN2C(=O)c3ccccc3Sc3ncccc32)c1C | 0%
CCc1ccc(-c2cc(C)no2)cc1S(=O)(=O)NCc1ccc(OC)cc1 | 21%
Cc1cccc(Nc2cc(C)nc3nc(-c4ccccc4)nn23)c1 | -6%
O=C(NC1CC(=O)N(c2ccc(Cl)cc2)C1)C1CCCCC1 (centres undefined) | 2%
COc1ccc(-c2nc3ccccc3o2)cc1NC(=O)C(C)Oc1ccc(Cl)cc1Cl (centres undefined) | -12%
COc1ccccc1CNC(=O)CCn1c(=O)c2ccccc2n(CC(=O)Nc2ccc(C)cc2C)c1=O | -3%
CC1CCc2noc(NC(=O)c3ccccc3[N+](=O)[O-])c2C1 (centres undefined) | -12%

Overlap with the part before: 5 entries, followed by the next part.
molecule | miR-21 reporter
Cc1cccc(Nc2cc(C)nc3nc(-c4ccccc4)nn23)c1 | -6%
O=C(NC1CC(=O)N(c2ccc(Cl)cc2)C1)C1CCCCC1 (centres undefined) | 2%
COc1ccc(-c2nc3ccccc3o2)cc1NC(=O)C(C)Oc1ccc(Cl)cc1Cl (centres undefined) | -12%
COc1ccccc1CNC(=O)CCn1c(=O)c2ccccc2n(CC(=O)Nc2ccc(C)cc2C)c1=O | -3%
CC1CCc2noc(NC(=O)c3ccccc3[N+](=O)[O-])c2C1 (centres undefined) | -12%
N#Cc1ccc(S(=O)(=O)N2CCC(Oc3cccc(C(F)(F)F)c3)CC2)cc1 | -2%
Cc1ccc2c(CC(=O)N(Cc3ccc(Cl)cc3)Cc3ccco3)coc2c1 | 22%
Cc1ccc(Cl)cc1NC(=O)c1ccc2nc(CCc3ccccc3)oc2c1 | -10%
O=C(O)c1ccc2c(c1)N(Cc1ccc(F)cc1)C(=O)c1ccccc1S2=O (centres undefined) | 2%
COC(=O)CC(=O)CSc1nc2cc(C(=O)NCC(C)C)ccc2c(=O)n1CCc1ccccc1 | 22%
CCOc1ccc(NC(=O)Cn2c(=O)n(Cc3ccc(C(=O)NCc4ccc(C)cc4)cc3)c(=O)c3ccccc32)cc1 | 0%
COc1ccccc1-c1noc(CSc2nnc(Cc3ccccc3)n2-c2ccc(C)c(C)c2)n1 | 3%
Cc1ccc(CNC(=O)c2c[nH]c3ccc(S(=O)(=O)Nc4ccc(C(C)C)cc4)cc3c2=O)cc1 | 4%
Cn1cnc(S(=O)(=O)N2CCC(C(=O)Nc3ccc(F)cc3F)CC2)c1 | 0%
COc1ccccc1N1CCN(c2c(CN3CCCC3)c(=O)oc3ccccc23)CC1 | 0%
CCN(C(=O)CCNC(=O)Cn1cnc2ccccc2c1=O)c1cc(OC)ccc1OC | -2%
CC(NC(=O)c1ccc(N2Cc3ccccc3Oc3ncccc32)s1)c1ccccc1 (centres undefined) | -4%
COc1cccc(CNC(=O)Cn2nc(N3CCN(c4ccccc4OC)CC3)ccc2=O)c1 | 1%
COc1ccc(NC(=O)C2CCN(c3ccc(Sc4ccc(C)cc4)nn3)CC2)cc1 | 0%
CCNc1ncnc2c1nnn2C | 0%
CCCC(=O)C1=C(c2ccc(C)cc2)N(C(=O)CCC)n2cnnc2S1 | ?

As entered above.
Under miR-21 reporter, CCNc1ncnc2c1nnn2C has the entry 0%
Under miR-21 reporter, COc1ccccc1N1CCN(c2c(CN3CCCC3)c(=O)oc3ccccc23)CC1 has the entry 0%

The list continues:
molecule | miR-21 reporter
COc1ccc(N2C(=O)CSC23C(=O)N(CC(N)=O)c2ccccc23)cc1 (centres undefined) | 0%
COc1ccc2sc(N(Cc3cccnc3)C(=O)c3ccco3)nc2c1 | 4%
CCOC(=O)CSC1=Nc2ccccc2C2=NC(CCC(=O)NCc3ccccc3)C(=O)N12 (centres undefined) | 3%
Cc1ccc(NC(=O)c2nc(S(=O)(=O)Cc3ccc(F)cc3)ncc2Cl)cc1C | ?
Cc1ccc(NC(=O)Cn2c(-c3nonc3N)nc3ccccc32)c(Br)c1 | -28%
Cc1cc(C)c2oc(-c3ccc(Cl)c(NC(=O)c4cccs4)c3)nc2c1 | -29%
CCN(CC)C(=O)Cn1c(=O)n(-c2ccc(C)c(C)c2)c(=O)c2c(C)c(C(=O)N(CC)CC)sc21 | -2%
Cc1c(Cl)cccc1NC(=O)N1CCC(CN2CCCC2)CC1 | -8%
Cc1ccc(CNc2nc3ccccc3n3c(C)nnc23)cc1 | 2%
COc1ccc2nc(N(Cc3cccnc3)C(=O)CCc3ccccc3)sc2c1 | 5%
COc1cc(C2CC(=O)Nc3c2c(=O)[nH]c2ncnn32)ccc1O (centres undefined) | -10%
CCOC(=O)C1CCN(c2cc3c(cc2NC(=O)c2ccc(Cl)cc2)n(C)c(=O)n3C)CC1 | 3%
CCOC(=O)c1ccc(NC(=O)c2cn(-c3ccccc3)nc2-c2ccc(OC)c(OC)c2)cc1 | -1%
CCNC(=O)C1CCN(S(=O)(=O)c2ccc3c(c2)CCCN3C(C)=O)CC1 | 1%
COc1ccc(-c2c(C#N)c(SCC(=O)Nc3ccc(Br)cc3)nc(C)c2C(=O)Nc2ccccc2)cc1 | -2%
O=C(CSc1cn(CC(=O)N2CCCCC2)c2ccccc12)Nc1ccc(C(F)(F)F)cc1 | 5%
COc1ccc(OC)c(CNC(=O)c2ccc3c(c2)c(C)c(C)n3C)c1 | 2%
COc1ccc(-c2nc(SCC(=O)c3ccc(OC)c(Br)c3)n[nH]2)cc1 | -7%
Cc1cccc(NC(=O)c2cc(S(=O)(=O)NCCc3ccccc3)ccc2F)c1C | -2%
CCOC(=O)c1ccc(NC(=O)C2CCN(S(=O)(=O)Cc3ccccc3)CC2)cc1 | 0%
CCc1ccc(N2CC(C)Cn3c2nc2c3c(=O)n(CC(=O)O)c(=O)n2C)cc1 (centres undefined) | -1%
Cc1ccc(CN2CCN(CC(=O)NCc3ccccc3Cl)C2=O)cc1 | 0%
COc1cccc(CNc2sc3c(c2C(=O)Nc2ccc(OC)cc2OC)CCC3)c1 | 0%
CCOC(=O)c1c(NC(C)=O)c2c3c(sc2n1Cc1nc(-c2cccc(C)c2)oc1C)CCCC3 | -2%
CCN(c1ccccc1)S(=O)(=O)c1ccc(NC(=O)c2nc(SC)ncc2Cl)cc1 | 28%
COc1ccc(OCc2ccc(-c3nc(C#N)c(N4CCN(c5ccccc5)CC4)o3)o2)cc1 | 2%
Cc1ccc(NC(=O)Cn2nnc3sc(-c4ccccc4)cc3c2=O)cc1Cl | 2%

Not all compounds are listed. The share of hits here may be higher or lower than overall.
